LASV entry inh: inhibitors of Lassa virus binding or cell entry; Potency, µM (series often up to 37.9 µM), for the others: at the highest dose activity change, negative = inhibition, usual class: inhibitors; AID 540256; 300,000 tested, 1.2% active; Lassa virus pseudotype entry inhibition, cell reporter; control for the full effect not named in the record; active means well fitted inhibition curve with a large enough effect; inconclusive means small, poorly fitted or top-dose-only effect, or effect the other way; inactive means flat fitted curve, though single readings scatter; tested in HEK293 cells; also: % is scaled to controls: 0 for no effect and ±100 for the full control effect; nearly all actives have a fitted effect of over 50% in size; luciferase read-out
RE007 growth inh: less growth of the S. pombe RE007 Vpr strain | S. pombe RE007 Vpr strain, BacTiter-Glo ATP luminescence, 24 h; control for the full effect not named in the record | Potency, µM (highest dose often 92.2 µM), inactives show at the highest dose activity change, negative = less growth | 360,000 tested, 0.21% active; active = well fitted falling curve with a large enough effect; inconclusive = small, poorly fitted or top-dose-only effect; inactive = no such curve, though single readings can be large or run the other way;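 also: % is scaled to controls: 0 for no effect and ±100 for the full control effect; nearly all actives have a fitted effect of over 50% in size; the assay follows cell death caused by Vpr and the record does not say whether a fall means rescue or toxicity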
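Fission yeast RE007 carrying one integrated HIV-1 vpr copy, seeded at OD 0.01 in PMG+AL medium with 23 nL pinned compound. Grown 24 h at 30 degrees; viability read by BacTiter-Glo luminescence after 5 min.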
Cruzain noTriton: cruzain (T. cruzi) inhibition without detergent; P25779; purified cruzain, Z-FR-AMC fluorescence, no detergent; Potency, µM, for inactives: max response, negative = inhibition, hits mostly inhibitors; 200,000 tested, 2.3% active;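 also: plate controls were enzyme without inhibitor for no effect and buffer without enzyme for full effect; nearly all actives have a fitted effect of over 40% in size; top concentration of the series not given in the record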
Target sequence (P25779 123-467 limits assumed): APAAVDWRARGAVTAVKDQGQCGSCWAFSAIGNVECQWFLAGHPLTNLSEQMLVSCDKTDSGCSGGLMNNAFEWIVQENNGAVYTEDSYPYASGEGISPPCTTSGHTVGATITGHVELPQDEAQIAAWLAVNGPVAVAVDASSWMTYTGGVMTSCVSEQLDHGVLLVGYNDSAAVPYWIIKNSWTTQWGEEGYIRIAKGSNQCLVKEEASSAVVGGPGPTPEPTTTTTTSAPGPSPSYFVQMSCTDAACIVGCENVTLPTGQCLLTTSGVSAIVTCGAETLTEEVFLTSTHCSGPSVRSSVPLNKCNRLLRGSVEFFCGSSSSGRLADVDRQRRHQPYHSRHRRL
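Detergent-free condition (0.00005% Triton X-100) in acetate buffer pH 5.5 with DTT. 1.5 nM enzyme and compound were pre-mixed 15 min, then 2 uM Z-FR-AMC substrate added; reaction progress from fluorescence change between first and third reads (60 s).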
2A StopGo: FMDV 2A StopGo reporter, luciferase signal; human cells with a luciferase reporter of 2A StopGo recoding; control for the full effect not named in the record; 410,000 tested, 1.2% active; Potency, µM (top dose mostly 57.9 µM), for inactives: top-dose signal change, negative = less light; active = well fitted falling curve with a large enough effect; inconclusive = small, poorly fitted or top-dose-only effect; inactive = no such curve, though single readings can be large or run the other way; tested in HEK293T cells; also: % is scaled to controls: 0 for no effect and ±100 for the full control effect; nearly all actives have a fitted effect of over 45% in size; luciferase light after 4 h
NS1 inh: blocks influenza NS1 protein function; S. cerevisiae slowed by influenza A NS1, growth recovery by OD600; Potency, µM (series often up to 46.1 µM), inactives show at the top dose activity, positive = more growth; 270,000 tested, 0.4% active; active means well fitted rising curve with a large enough effect; inconclusive means small, poorly fitted or top-dose-only effect; inactive means no such curve, though single readings can be large or run the other way; also: nearly all actives have a fitted effect of over 50% in size
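Recovery from NS1-induced slow growth read by OD600 in budding yeast switched to galactose assay medium (pH 6.0, -URA) at 1:100 dilution. Compound 23 nl per well; the matching strain lacking NS1 serves as control.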
SARS PLpro yeast: blocks SARS-CoV papain-like protease in a yeast assay; S. cerevisiae expressing SARS-CoV PLpro, growth rescue; control for the full effect not named in the record; Potency, µM (doses to about 32.9 µM), for inactives: top-dose activity, positive = growth rescue; 330,000 tested, 0.19% active; AID 485353; active means well fitted rising curve with a large enough effect; inconclusive means small, poorly fitted or top-dose-only effect; inactive means no such curve, though single readings can be large or run the other way; also: 0% is about no effect; nearly all actives have a fitted effect of over 55% in size; growth read by luminescence after 48 h
Cruzain inh Det: cruzain (T. cruzi) inhibition with detergent; P25779; purified cruzain, Z-FR-AMC fluorescence, 0.01% Triton; Potency, µM, for the others: max response, negative = inhibition, actives largely listed as inhibitors; 200,000 tested, 0.43% active;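 also: plate controls were neutral wells for no effect and buffer without enzyme for full effect; nearly all actives have a fitted effect of over 40% in size; top concentration of the series not given in the record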
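Read-out: AMC fluorescence (360 nm excitation, 450 nm emission), four reads over 2 min, first-to-third difference used. Conditions: cruzain 1.5 nM, Z-FR-AMC 2 uM, pH 5.5 acetate, 5 mM DTT, 0.01% Triton X-100.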
MARV entry inh: Marburg virus entry inhibition; Marburg virus pseudotyped entry inhibition, cell reporter; control for the full effect not named in the record; about a third of the inactives were read at about 46 µM; Potency, µM (series often up to 37.8 µM), without a hit: at the top dose activity change, negative = inhibition, most hits filed as inhibitors; 300,000 tested, 1.8% active; active = well fitted inhibition curve with a large enough effect; inconclusive = small, poorly fitted or top-dose-only effect, or effect the other way; inactive = flat fitted curve, though single readings scatter; tested in HEK293 cells; about a fifth of its hits are not listed in these tables; also: % is scaled to controls: 0 for no effect and ±100 for the full control effect; luciferase read-out
Starred values were filed as active, the others as inactive; & = joins results of further samples; [ ] = remark or other dose. Unless noted, calls follow the shape of the dose curve; as a rule, active = well fitted curve in the direction sought with a large enough effect; inconclusive = small, poorly fitted or top-dose-only effect, or another doubt; inactive = no such curve, though single readings can be large; an effect the other way counts as inactive or inconclusive. Potency is read from the fitted curve at half-maximal effect.

Screening Cc1c(Cl)cccc1NC(=S)NC1CCN(Cc2ccccc2)CC1 returned LASV entry inh inconclusive, RE007 growth inh 14%, Cruzain noTriton 11%, 2A StopGo 0%, NS1 inh -11%, SARS PLpro yeast 1%, Cruzain inh Det 4.2% and MARV entry inh 16µM*.
`Cc1nc(N2CCOCC2)nc(OC(C)C)c1[N+](=O)[O-]` gave LASV entry inh 1%, RE007 growth inh -10%, Cruzain noTriton 2%, 2A StopGo -24%, NS1 inh -18%, SARS PLpro yeast -8%, Cruzain inh Det -2.6% and MARV entry inh 0%.
`Cc1ccc(NC(CC(=O)c2ccccc2)C(=O)O)cc1Cl` (stereo not drawn) gave RE007 growth inh 0%, 2A StopGo -16%, NS1 inh -7% and SARS PLpro yeast 0%.
For COc1ccc2[nH]c3c(c2c1)CCN1C(=O)C(CC(=O)NC(C)(C)C)C[C@H](C(=O)N2CCCCC2)[C@@]31C (stereo partly drawn) the results were RE007 growth inh -5%, 2A StopGo -18%, SARS PLpro yeast -7% and MARV entry inh -1%.
Screening COc1ccccc1-n1c(SCC(=O)O)nnc1-c1ccc(S(=O)(=O)N2CCCCC2)cc1 returned LASV entry inh 6%, RE007 growth inh -2%, Cruzain noTriton inconclusive, 2A StopGo -10%, NS1 inh 12%, SARS PLpro yeast 11%, Cruzain inh Det -2.2% and MARV entry inh -3%&-7%.
Screening CC1CCN(C(=O)CN(C)S(=O)(=O)c2cccc3nsnc23)CC1 returned LASV entry inh 14%, RE007 growth inh 1%, Cruzain noTriton 2%, 2A StopGo 12%, NS1 inh -14%, SARS PLpro yeast 1%, Cruzain inh Det 3.6% and MARV entry inh 12%.
For O=C1CCCC(O)=C1C=NCc1ccccc1 the results were LASV entry inh 7%, RE007 growth inh 25%, 2A StopGo 39%[activator], NS1 inh 1%, SARS PLpro yeast 1% and MARV entry inh 17%[46.1 µM].
Screening O=c1oc2ccccc2n1CCCOc1ccccc1 returned RE007 growth inh -1%, Cruzain noTriton -7%, 2A StopGo 37%[activator], NS1 inh -5%, SARS PLpro yeast -5% and Cruzain inh Det 4.6%.
`CCN(CC)CCCN1C(=O)C(O)=C(C(=O)c2ccco2)C1c1ccc(C)o1` (stereo not drawn) gave LASV entry inh 3%, RE007 growth inh 22%, 2A StopGo 5%, NS1 inh 6% and MARV entry inh 1%.
`CCCCSc1ccc2nc(-c3ccc(C#N)cc3)cn2c1` gave LASV entry inh inconclusive, RE007 growth inh 7%, Cruzain noTriton -1%, 2A StopGo -2%, NS1 inh -52%, SARS PLpro yeast -3%, Cruzain inh Det -5.7% and MARV entry inh -25%.
`CNC(=O)C1=C(C)Nc2nc3ccccc3n2C1c1cccc(OC)c1` (stereo not drawn) gave RE007 growth inh -3%, Cruzain noTriton -11%, 2A StopGo 10%, NS1 inh 9%, SARS PLpro yeast 1% and Cruzain inh Det -11%.
`O=C(NNc1ccc([N+](=O)[O-])cc1)C12CC3CC(CC(C3)C1)C2` gave LASV entry inh 1%, RE007 growth inh 0%, Cruzain noTriton -6%, 2A StopGo 2%, NS1 inh -46%, SARS PLpro yeast -7%, Cruzain inh Det -4.2% and MARV entry inh inconclusive.
`Cc1c(C(=O)N2CCOCC2)oc2ccc(S(=O)(=O)N3CCCC3)cc12` gave LASV entry inh -22%, RE007 growth inh 3%, Cruzain noTriton 6%, 2A StopGo -14%, NS1 inh -1%, SARS PLpro yeast 8%, Cruzain inh Det 0.5% and MARV entry inh 11%.
`Nc1c(N(Cc2ccco2)C(=O)COc2ccc(Cl)cc2)c(=O)[nH]c(=O)n1Cc1ccccc1` gave LASV entry inh 4%, RE007 growth inh 13%, 2A StopGo inconclusive and MARV entry inh 5%.
For CCOc1ccc(NS(=O)(=O)c2ccc(OCC)c3ncccc23)cc1 the results were LASV entry inh inconclusive, RE007 growth inh 1%, Cruzain noTriton 1%, 2A StopGo 10%, NS1 inh -1%, SARS PLpro yeast -11%, Cruzain inh Det -0.8% and MARV entry inh inconclusive.
`Cc1ccc2c(c1)-c1c(c(C(=O)N3CCN(c4cc(Cl)ccc4C)CC3)nn1C)CS2` gave LASV entry inh 6%[46.1 µM], Cruzain noTriton 4%, 2A StopGo -8% and Cruzain inh Det 2.1%.
`COCCCn1c(=O)c2ccccc2n(CC(=O)Nc2ccc3c(c2)OCCO3)c1=O` gave LASV entry inh -10%, RE007 growth inh -10%, 2A StopGo -13%, NS1 inh 18%, SARS PLpro yeast 4% and MARV entry inh 4%[46.1 µM].
O=C(OC1CCN(CCCl)CC1)C(c1ccccc1)c1ccccc1 was read as RE007 growth inh 0%[18.4 µM], Cruzain noTriton 5%, 2A StopGo 16µM*, NS1 inh -17%, Cruzain inh Det -6.2% and MARV entry inh 10µM*.
`O=C1C2CC=C(Cl)CC2C(=O)N1CCCCCCN1C(=O)C2CC=C(Cl)CC2C1=O` (stereo not drawn) gave LASV entry inh inconclusive, RE007 growth inh 7%, Cruzain noTriton inconclusive, NS1 inh 11%, SARS PLpro yeast 12%, Cruzain inh Det -13% and MARV entry inh -16%.
Screening COCCn1c(C)cc(C(=O)COC(=O)c2ccc(-n3nc(C)cc3C)cc2)c1C returned LASV entry inh 5%, RE007 growth inh 42%, Cruzain noTriton 23%, 2A StopGo inconclusive, NS1 inh 4%, SARS PLpro yeast 0%, Cruzain inh Det -4.2% and MARV entry inh 12%.
For CCCCOC(=O)c1ccc(NC(=O)c2c(Cl)ccc(Cl)c2OC)cc1 the results were LASV entry inh inconclusive, RE007 growth inh 11%, Cruzain noTriton -7%, 2A StopGo inconclusive, NS1 inh -16%, SARS PLpro yeast -45%, Cruzain inh Det -9.8% and MARV entry inh inconclusive.
O=C(NCCN1CCOCC1)c1ccc(Cl)cc1[N+](=O)[O-] was read as LASV entry inh -8%, RE007 growth inh -10%, Cruzain noTriton -7%, 2A StopGo 5%, NS1 inh 4%, SARS PLpro yeast 2%, Cruzain inh Det 1.4% and MARV entry inh 20%.
CCC1CCCCN1CCNS(=O)(=O)c1ccc2c(c1)CCN2C(C)=O (stereo not drawn) was read as LASV entry inh -4%, RE007 growth inh 13%, Cruzain noTriton -1%, 2A StopGo 24%, NS1 inh -1%, SARS PLpro yeast inconclusive, Cruzain inh Det 2.4% and MARV entry inh -4%.
Screening O=C(O)c1ccc(S(=O)(=O)N2CCOCC2)o1 returned LASV entry inh 0%, RE007 growth inh 16%, 2A StopGo -4%, NS1 inh 17%, SARS PLpro yeast 0% and MARV entry inh 16%[46.1 µM].
O=C(COC(=O)c1cccnc1Cl)Nc1ccc(S(=O)(=O)N2CCOCC2)cc1 was read as LASV entry inh 5%[46.1 µM], RE007 growth inh -14%, 2A StopGo -4%, SARS PLpro yeast 1% and MARV entry inh -6%[46.1 µM].
Screening CCc1ccccc1NC(=O)CN(C)C(=O)CSc1nnc(Nc2ccc(C)cc2)s1 returned LASV entry inh 10%, RE007 growth inh 2%, Cruzain noTriton 27%, 2A StopGo -9%, NS1 inh -29%, SARS PLpro yeast 18%, Cruzain inh Det -2.6% and MARV entry inh 5%.
For COc1ccc(S(N)(=O)=O)cc1C(=O)NCC(C)(C)N1CCOCC1 the results were LASV entry inh 22%[46.1 µM], RE007 growth inh 0%, 2A StopGo 32%[activator], NS1 inh 15%, SARS PLpro yeast -2% and MARV entry inh 2%[46.1 µM].
For Cc1ccc(C2c3c(oc4ccc(Cl)cc4c3=O)C(=O)N2CCCN2CCOCC2)o1 (stereo not drawn) the results were Cruzain noTriton inconclusive, NS1 inh 0%, SARS PLpro yeast -21% and Cruzain inh Det -11%.
NS(=O)(=O)c1cnccc1Oc1cccc(Cl)c1 was read as LASV entry inh -2%, RE007 growth inh -2%, 2A StopGo 12% and MARV entry inh 2%[46.1 µM].
Screening O=C(c1ccccc1)c1coc2c1C(=O)c1ccccc1C2=O returned RE007 growth inh inconclusive, 2A StopGo inconclusive, SARS PLpro yeast -1% and MARV entry inh inconclusive.
CN(CC(=O)Nc1ccccc1Br)C(=O)CCSc1ccc(F)cc1 was read as LASV entry inh -4%, RE007 growth inh 2%, 2A StopGo inconclusive, SARS PLpro yeast 1% and MARV entry inh 2%.
`Cc1nnc(N2C(=O)c3ccc(Br)cc3C2=O)s1` gave LASV entry inh -4%, RE007 growth inh -15%, 2A StopGo -17%, NS1 inh -7%, SARS PLpro yeast -6% and MARV entry inh inconclusive.
For COC(=O)c1ccccc1OCCOCCOc1cccc2ccc(C)nc12 the results were LASV entry inh inconclusive, RE007 growth inh -30%, 2A StopGo -16%, NS1 inh 0%, SARS PLpro yeast 4% and MARV entry inh 2%[46.1 µM].
O=C(CN(C(=O)CNC(=O)c1ccco1)c1ccc(F)cc1)NC1CCCC1 was read as LASV entry inh 3%, RE007 growth inh -15%, 2A StopGo -18%, NS1 inh 8%, SARS PLpro yeast -1% and MARV entry inh -4%[46.1 µM].
Screening CCCCn1c(SCC(=O)c2ccc(O)cc2O)nc2cc(S(N)(=O)=O)ccc21 returned LASV entry inh 3%[46.1 µM], RE007 growth inh 6%, 2A StopGo -22%, NS1 inh 5%, SARS PLpro yeast -2% and MARV entry inh 3%[46.1 µM].
`S=C(c1ccc(-c2cccc(Cl)c2)o1)N1CCOCC1` gave LASV entry inh inconclusive, RE007 growth inh -15%, Cruzain noTriton -14%, 2A StopGo 38%[activator], NS1 inh -15%, SARS PLpro yeast -9%, Cruzain inh Det -25% and MARV entry inh 14%.
Screening COc1cc(C)c(S(=O)(=O)NCc2cccs2)cc1C returned LASV entry inh -23%, RE007 growth inh -17%, Cruzain noTriton 0%, 2A StopGo 50%[activator], NS1 inh -37%, SARS PLpro yeast -10%, Cruzain inh Det -1.8% and MARV entry inh -9%.
COc1cc(CNC(=O)c2ccc(Cn3nc(C)c(Cl)c3C)o2)cc(OC)c1 was read as LASV entry inh -17%, RE007 growth inh -3%, Cruzain noTriton inconclusive, NS1 inh -34%, SARS PLpro yeast -2%, Cruzain inh Det -3.5% and MARV entry inh inconclusive.

Bioassay records from PubChem.

Not a hit list; about 4.6% have a hit in one of these screens.
